MT1-MMP reporter: inhibitors of MT1-MMP promoter transcription, cell-based, luciferase reporter, luminescence (AID 618); MT1-MMP promoter luciferase reporter cells, luminescence; calls from a first round at 10 µM; hits with a dose series show EC50 in µM; 87,000 compounds, 0.62% hits;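 active = over half of the reporter light lost at 10 µM or EC50 under 50 µM; inactive = the rest and hits that failed the dose series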;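 note: actives suppress MT1-MMP promoter-driven transcription so potencies describe inhibitors; HT1080 fibrosarcoma cells; overnight exposure; toxic or luciferase-blocking compounds were not removed from the actives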
Hsc70 ATP site: small molecules displacing fluorescent ligand from Hsc70 – biochemical, fluorescence polarization, primary screen (AID 568). Hsc70 fluorescence polarization, probe displacement; higher % means a stronger effect; strong numbers were not always called active. one-dose displacement, % at 20 µM; IC50 in µM for titrated hits. 83,000 tested, under 10 active;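 active = displacement above 50% without optical interference and an IC50 on retest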;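 note: ATPase domain with a fluorescein-tagged ATP probe; 0% = vehicle and 100% = excess ADP; read after one hour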
WNV NS2B-NS3 inh: blocks West Nile virus NS2B-NS3 protease activity. P06935. WNV NS2B-NS3 protease, fluorogenic substrate Ex360/Em465; hits give low values. z-score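 (tested at a level between 10 and 100 µM)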. 65,000 compounds, 0.18% hits;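 active = z-score at -3 or under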;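 note: score is relative to mean and spread of the compound wells of a plate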
Target sequence (P06935 1371-1501 limits assumed): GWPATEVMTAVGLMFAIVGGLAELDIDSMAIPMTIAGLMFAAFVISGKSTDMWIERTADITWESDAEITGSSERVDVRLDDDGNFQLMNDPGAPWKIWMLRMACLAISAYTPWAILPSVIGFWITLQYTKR
Target sequence (P06935 1502-1679 limits assumed): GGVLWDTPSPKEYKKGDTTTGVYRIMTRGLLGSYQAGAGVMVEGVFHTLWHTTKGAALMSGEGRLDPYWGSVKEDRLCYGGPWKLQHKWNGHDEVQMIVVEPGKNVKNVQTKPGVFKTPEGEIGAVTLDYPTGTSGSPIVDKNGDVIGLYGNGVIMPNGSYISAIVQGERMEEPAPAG
An asterisk follows results filed as active; i = inactive; . = not tested or not shown. A portion of the library (hit frequency here may not be typical).

SMILES	MT1-MMP reporter	Hsc70 ATP site	WNV NS2B-NS3 inh
Cn1c(=O)c2ncn(CC(=O)NCCOc3ccc(C(C)(C)C)cc3)c2n(C)c1=O	i	1.9%	-0.97
Cc1c(-c2nc(N)nc(Nc3ccccc3F)n2)oc2ccccc12	i	0.3%	-0.17
O=C(Nc1cccnc1)c1ccc(F)cc1	i	6.2%	.
Cc1onc(-c2ccccc2)c1C(=O)Nc1nnc(-c2ccncc2)s1	i	6.7%	-0.99
O=C(NC1(C(F)(F)F)C(=O)Nc2c1c(=O)[nH]c(=O)n2Cc1ccco1)C1CCCCC1 (stereo unspecified)	i	2.3%	-0.59
CCc1nc2oc3ccccc3c(=O)c2c(=O)n1Cc1ccc(OC)cc1	i	1.0%	-0.51
Cc1cc(=O)c2ccc3ccccc3c2[nH]1	i	-2.1%	.
CCC(CC)C(=O)NCCc1cc2c(C)ccc(C)c2[nH]c1=O	i	2.0%	0.3
Cc1cccc(C)c1NC(=O)N1CCN(C2CCCCC2)CC1	i	2.7%	0.34
CCc1ccc(-c2nnn(Cc3nc4ccccc4s3)n2)cc1	i	5.9%	1.4
COc1cccc(-c2nc(CS(=O)CC(=O)NC3CCCC3)c(C)o2)c1 (stereo unspecified)	i	-4.1%	-0.33
COC(=O)C1C(=O)C2=C(CC1C)NC(=O)CC2c1cccc(C)c1 (stereo unspecified)	i	-1.6%	-1.9
CC12CCC(C(=O)N(c3ccccn3)c3ccccn3)(OC1=O)C2(C)C (stereo unspecified)	i	2.9%	-0.05
CCn1c(COc2ccccc2C)nnc1SCC(=O)N1CCC(C)CC1	i	-1.9%	1.7
Nn1cc(-c2ccccc2)nc1SCC(=O)N1CCN(S(=O)(=O)c2ccc(Cl)cc2)CC1	i	-1.1%	-0.15
O=c1c(-c2cc3ccccc3o2)[n+]([O-])c2ccccc2n1OCc1ccccn1	i	12%	.
CCC(=O)Nc1ccc(S(=O)(=O)NCCc2ccccc2)cc1	i	-1.8%	.
CC1CCCCN1S(=O)(=O)c1ccc(C(=O)Nc2nnc(-c3cccs3)o2)cc1 (stereo unspecified)	i	-2.0%	-0.77
CCOC(=O)c1sc(NC(=O)CSc2nnnn2-c2ccccc2)nc1C	i	-3.5%	-1.4
O=C(NCc1cccnc1)c1nnc(Cc2ccc(F)cc2)o1	i	2.2%	-2.1
NC(=O)c1ccsc1NC(=O)CSc1ccccc1F	i	1.2%	0.11
Cc1nc(NCC2CCCO2)nc2c1C(=O)CC(C)C2 (stereo unspecified)	i	3.8%	-0.59
O=C(CSCc1c(Cl)cccc1Cl)NCC1CCCO1 (stereo unspecified)	i	1.1%	.
Cc1ccc(Cl)c(Nc2ccccc2C(=O)O)c1Cl	i	2.0%	0.5
CCOCCCNC(=O)Cn1cc2c(n1)CCCC2	i	0.1%	-0.27
CCN(CC)c1nc(N)nc(NS(=O)(=O)c2ccc(Cl)cc2)n1	i	-0.8%	0.02
O=C(CN1CCN(c2ccc(F)cc2)CC1)N1CCOCC1	i	-1.2%	0.01
CSc1ccc(Cl)c(C(=O)OCC(=O)NCc2ccco2)c1	i	-3.4%	0.29
CC1=C(C(=O)OC2CCCCCC2)C(c2ccc(C)o2)C2=C(CCCC2=O)N1 (stereo unspecified)	i	-3.1%	-0.49
COc1cc(OC)c(C2=NOC(C(=O)N3CCCc4ccccc43)C2)cc1Cl (stereo unspecified)	i	4.5%	.

Reprinted from above, 5 compounds:
SMILES	MT1-MMP reporter	Hsc70 ATP site	WNV NS2B-NS3 inh
O=C(CSCc1c(Cl)cccc1Cl)NCC1CCCO1 (stereo unspecified)	i	1.1%	.
Cc1ccc(Cl)c(Nc2ccccc2C(=O)O)c1Cl	i	2.0%	0.5
CCOCCCNC(=O)Cn1cc2c(n1)CCCC2	i	0.1%	-0.27
CCN(CC)c1nc(N)nc(NS(=O)(=O)c2ccc(Cl)cc2)n1	i	-0.8%	0.02
O=C(CN1CCN(c2ccc(F)cc2)CC1)N1CCOCC1	i	-1.2%	0.01

Next part.
SMILES	MT1-MMP reporter	Hsc70 ATP site	WNV NS2B-NS3 inh
COc1cccc(CNc2ncc(Br)cc2Br)c1O	i	3.7%	-0.49
CC(=O)c1c(C)[nH]c(C(=O)NCc2ccccc2)c1C	i	-3.7%	.
O=C1C(Cl)=C(N2CCCCCC2)C(=O)N1c1ccccc1	i	-4.5%	-0.34
Cc1occc1-c1nnc(SCC(=O)N2CCN(c3ccccc3F)CC2)n1C	i	3.4%	0.05
CNS(=O)(=O)c1cc(O)c2c(S(=O)(=O)NC)cccc2c1	i	-1.8%	-0.76
CC1(C)CC(n2c(NCCO)nc3c(c2=O)C2(CCCC2)Cc2ccccc2-3)CCO1 (stereo unspecified)	i	5.2%	0.45
COc1ccccc1NC(=O)c1[nH]c(C)c(C(C)=O)c1C	i	0.5%	-0.85
CC(C)NS(=O)(=O)c1cccc2nsnc12	i	-7.9%	-0.72
COc1ccc(C2CC(=O)N3CN(c4ccc(C)c(Cl)c4)CSC3=C2C#N)cc1 (stereo unspecified)	i	-2.4%	-1.2
NS(=O)(=O)c1ccc(NC(=O)CCc2ccccc2)cc1	i	5.1%	-0.03
COc1ccccc1C1=NOC(Cn2c(=O)c3c(ncn3C)n(C)c2=O)C1 (stereo unspecified)	i	-4.7%	1.1
CCCCNC(=O)C1CC(=O)N(CCC(C)C)C1 (stereo unspecified)	i	3.0%	1
CCOC(=O)C(C)n1cnc2c(cnn2-c2ccc(Cl)cc2)c1=O (stereo unspecified)	i	-4.5%	1.1
CCOC(=O)c1sc(NS(=O)(=O)c2ccccc2)nc1C	i	2.7%	.
Cn1c(C(=O)N2CCN(C(=O)c3ccco3)CC2)cc2c(=O)n3ccccc3nc21	i	-0.9%	4
CCCC(=O)N(c1ccc(OC)cc1)C1C=CS(=O)(=O)C1 (stereo unspecified)	i	4.6%	-0.46
Cc1nn(Cc2ccccc2)c(C)c1CCC(=O)O	i	-6.3%	0.04
CCN1C(=O)CSc2ccc(C(=O)NCc3ccco3)cc21	i	-3.2%	-0.18
CC(C(=O)N1CCOCC1)N1C(=O)c2ccccc2C1=O (stereo unspecified)	i	5.5%	0.6
Cc1ccc(OCCN2CCN(C(=O)CCC(=O)Nc3nnc(C(C)C)s3)CC2)cc1	i	-6.7%	0.42
COc1ccc(Nc2nc(N)nc(CN3CCOCC3)n2)cc1	i	-7.2%	-1.9
Cc1nnc(SCCC(=O)Nc2nc(-c3ccccc3)ns2)s1	i	-19%	-0.1
COc1ccc2c(c1)c(=O)oc1cc(OCC(=O)NC3CC3)ccc12	i	6.8%	0.83
O=C1CC(C(=O)Nc2nccs2)C(c2ccccc2)O1 (stereo unspecified)	i	0.4%	.
COCCN(C(C)=O)c1nnc(-c2ccccn2)s1	i	-9.2%	-0.06
Cc1[nH]c2ccccc2c(=O)c1SC(F)(F)C(F)C(F)(F)F (stereo unspecified)	i	1.6%	.
CC(=O)Nc1ccc(C(=O)CS(=O)(=O)c2ccc(C)cc2)cc1	i	3.0%	-1.4
COc1ccc(OC)c(NC(=O)CCN2CC(C)OC(C)C2)c1 (stereo unspecified)	i	11%	-0.58
O=S(=O)(O)C1CCNCC1	i	-2.8%	-0.97
NS(=O)(=O)c1cccn1-c1ncc(C(F)(F)F)cc1Cl	i	-2.0%	.
CCC(=O)N1C(=O)CCN(C(C)=O)c2ccccc21	i	0.0%	-0.32
CC(C)C(NC(=O)c1ccccc1)C(=O)NCc1ccccn1 (stereo unspecified)	i	-8.0%	-0.41
COc1ccccc1CNC(=O)C1COc2ccccc2O1 (stereo unspecified)	i	6.8%	-0.41
Cc1cccc(C)c1NC(=O)C1(N(Cc2ccco2)C(=O)CC2NC(=O)NC2=O)CCCCC1 (stereo unspecified)	i	-1.6%	-0.23
O=C/C(=C\Nc1ccc(Cl)cn1)c1nc2ccccc2o1	i	-0.2%	.
CC1CCCc2sc3nc(NCc4ccco4)n4ncnc4c3c21 (stereo unspecified)	i	-4.6%	-0.47
O=C(N1CCCCCC1)N1CCN(S(=O)(=O)N2CCOCC2)CC1	i	2.0%	1.4
Cc1ccc2[nH]c3c(c2c1)CN(C(=O)CN1CCN(c2cccc(C)c2C)CC1)CC3	i	15%	-0.37
CCOC(=O)N1CCC(NC(=O)c2cnn3cccnc23)CC1	i	-0.9%	-0.35
COc1ccc(N(CC(=O)Nc2ccc3c(c2)OCO3)S(=O)(=O)c2c(C)nn(C)c2C)cc1	i	-3.2%	0.48
O=c1[nH]c2cc3c(cc2cc1C(c1nnnn1Cc1ccccc1)N1CCCc2ccccc21)OCO3 (stereo unspecified)	i	-0.1%	-0.92
Cc1cc[n+](-c2nc([O-])sc2/C=N/Nc2ccc([N+](=O)[O-])cc2)cc1	i	4.5%	.
Clc1ccc(-c2ccc(/C=N/Nc3cc(N4CCOCC4)nc(N4CCOCC4)n3)o2)cc1	i	2.3%	.
O=C(O)c1ccc(CSc2nnnn2C2CCCCC2)cc1	i	-2.3%	-0.44
Cc1cc(C)nc(SCC(=O)NC2=NC(=O)C(C)S2)n1 (stereo unspecified)	i	4.0%	-0.91
c1cncc(-c2nnc(SCCSc3nnc(-c4cccnc4)o3)o2)c1	i	-5.7%	-0.05
CC(C(=O)N1CC2(C)CC1CC(C)(C)C2)N1C(=O)c2ccccc2C1=O (stereo unspecified)	i	-1.9%	-0.21
COc1cc(NC(=O)c2ccc(Br)o2)c(C(=O)O)cc1OC	i	-1.1%	-0.11
Cc1ccc(NC(=O)N2CCC(C(=O)Nc3ccc(C)cc3C)CC2)cc1	i	1.5%	.
O=C(NCc1ccc2c(c1)OCO2)c1cnc2n(c1=O)CCS2	i	-1.2%	1.1

Later entries:
SMILES	MT1-MMP reporter	Hsc70 ATP site	WNV NS2B-NS3 inh
CCn1c(Cc2ccccc2)nnc1SCC(=O)NC(C)(C)C	i	3.6%	-2.2
CCOC(=O)C1CCN(c2cc(=O)n(-c3ccccc3Cl)c(=O)[nH]2)CC1	i	-4.6%	-0.43
Cc1cc(NC(=O)CSc2nc(-c3cccnc3)ccc2C#N)no1	i	0.2%	-0.43
O=C(Nc1cccnc1)c1ccccc1-c1nc(-c2ccccc2F)no1	i	0.1%	.
Cn1c(C2CCCN2C(=O)OC(C)(C)C)n[nH]c1=S (stereo unspecified)	i	1.5%	-0.52
COc1ccc(N(C)S(=O)(=O)c2cccc3cccnc23)c(OC)c1	i	1.6%	0.67
COc1ccc(N=CC2=C(O)CC(C)(C)CC2=O)cc1	i	-2.3%	0.55
O=C(c1ccc(F)cc1)C1CCN(C(=O)NC2CCCCC2)CC1	i	-1.7%	.
Cc1ccnc(SCCn2c(N3CCN(C)CC3)nc3c2c(=O)[nH]c(=O)n3C)n1	i	-1.1%	0.03
CCOC(=O)c1nnn(-c2nonc2N)c1-c1ccc(OC)cc1	i	-1.6%	-1.3
CC1CCN(S(=O)(=O)c2cccc(-c3cn4cc(Cl)ccc4n3)c2)CC1	i	0.5%	.
Cn1c(Cc2cccs2)nnc1SC/C=C/c1ccccc1	i	-1.2%	0.19
CN1CCN(S(=O)(=O)c2ccc3[nH]cc(C(=O)O)c(=O)c3c2)CC1	i	-46%	0.46
O=C(COC(=O)C12CC3CC(CC(C3)C1)C2)NC12CC3CC(CC(C3)C1)C2	i	4.6%	.
CC(=O)Nc1cc(C(=O)O)ccc1S(=O)(=O)c1ccc(Cl)cc1	i	0.1%	-0.9
COc1cccc(NC(=O)Cc2nnc(SCC(=O)c3ccccc3)n2C)c1	i	1.0%	0.45
Cc1ccc(N2CC(C(=O)Nc3cccc(F)c3)CC2=O)cc1 (stereo unspecified)	i	0.9%	0.33
O=C(OCc1nnc(-c2ccc(Cl)cc2)o1)c1ccncc1	i	-2.9%	0.28
COC(=O)C(C)Sc1nnc(SC(C)C(=O)OC)s1 (stereo unspecified)	i	-10%	0.87
CC(=O)c1ccc(OC(C)C)c(CSc2nc(O)cc(=O)[nH]2)c1	i	-3.4%	-0.84

7 compounds from above, reduced to WNV NS2B-NS3 inh and MT1-MMP reporter:
compound	WNV NS2B-NS3 inh	MT1-MMP reporter
CC1CCN(S(=O)(=O)c2cccc(-c3cn4cc(Cl)ccc4n3)c2)CC1	.	i
Cn1c(Cc2cccs2)nnc1SC/C=C/c1ccccc1	0.19	i
CN1CCN(S(=O)(=O)c2ccc3[nH]cc(C(=O)O)c(=O)c3c2)CC1	0.46	i
O=C(COC(=O)C12CC3CC(CC(C3)C1)C2)NC12CC3CC(CC(C3)C1)C2	.	i
CC(=O)Nc1cc(C(=O)O)ccc1S(=O)(=O)c1ccc(Cl)cc1	-0.9	i
COc1cccc(NC(=O)Cc2nnc(SCC(=O)c3ccccc3)n2C)c1	0.45	i
Cc1ccc(N2CC(C(=O)Nc3cccc(F)c3)CC2=O)cc1 (stereo unspecified)	0.33	i

More compounds
SMILES	MT1-MMP reporter	Hsc70 ATP site	WNV NS2B-NS3 inh
O=C(O)c1cc(S(=O)(=O)O)ccc1O	i	-4.3%	-0.01
Cc1ccccc1-c1ccc(Nc2ccc(N3CCOCC3)cc2)nn1	i	-7.5%	-0.71
CCOC(=O)c1cc2sccc2n1CC(=O)N1c2ccccc2CC1C (stereo unspecified)	i	-7.9%	-0.81
Cn1c(=O)oc2cc(S(=O)(=O)NC3CCN(Cc4ccccc4)CC3)ccc21	i	14%	-0.26
CCC(C)(C(=O)NC1CCCC1)N(Cc1cccs1)C(C)=O (stereo unspecified)	i	-3.1%	0.7
CCOc1cc(S(=O)(=O)n2nc(C)cc2C)ccc1F	i	1.1%	0.5
O=C(/C=N/O)NCCCN1CCOCC1	i	-6.3%	-0.49
O=C(Nc1ccc(C(=O)N2CCCCC2)cc1)C1CCCCC1	i	1.5%	.

Bioassay records (PubChem BioAssay)
